CDC25B-CDK2 inh: human CDC25B-CDK2/CyclinA binding inhibition. z-score (concentration not given with the values). 0.72% of 94,000 active. HTRF CDC25B-CDK2/CyclinA binding, anti-His/anti-Flag; hits give high values. AID 1259370;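 note: score is relative to mean and SD of negative controls; strong numbers were not always called active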
HIV TAR-Tat: HIV-1 TAR-Tat binding disruption; HIV-1 TAR RNA, Tat peptide displacement FRET; hits give high values; z-score (concentration not given with the values); 0.6% of 100,000 active;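 note: score is relative to mean and SD of negative controls; some compounds called inactive have numbers as strong as hits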
An asterisk follows results filed as active; x = not tested or not shown; & = joins results of further samples.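 Rule for the calls: active = z-score from 3 up in half or more of its runs; inactive = the rest.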

structure	CDC25B-CDK2 inh	HIV TAR-Tat
CCOC(=O)N1CCC2(CC1)OC(=O)C(C)=C2C(=O)NCCN1CCOCC1	x	1.6
CCOC(=O)c1sc(-c2sccc2COc2ccc(Cl)cc2)nc1C	-1	x
CC(C)OC(=O)c1ccc(N2CC(O)=C(c3nc4ccccc4[nH]3)C2=N)cc1	1.1	1.5
c1ccc2sc(Cc3nn[nH]n3)nc2c1	-0.08	-1.6
Cn1c(=O)c2c(nc(/C=C/c3cccc(Cl)c3)n2C)n(C)c1=O	-1.2	x
Cc1ccc2oc3c(c(=O)c2c1)C(c1ccc(O)cc1)N(CCCN1CCOCC1)C3=O (stereo unspecified)	-1.5	-0.02
CCCNS(=O)(=O)c1ccc2c(c1)CCCC(=O)N2	x	0.3
COc1ccc(OC)c(C2CCN(C(=O)Cn3cnc(S(=O)(=O)N4CCCC4)c3)C2)c1 (stereo unspecified)	x	-0.35
COc1cccc(CNc2nc3c(S(=O)(=O)c4ccc(Cl)cc4)nnn3c3ccsc23)c1	x	1.1
Cc1nn(-c2nc3ccccc3n2C)c2c1C(c1ccccc1)CC(=O)N2 (stereo unspecified)	x	0.12
CN(CC(=O)NCc1ccccn1)S(=O)(=O)c1cccc2nsnc12	-1.8	x
CCCN(C(=O)CC#N)C(=O)Nc1ccc(Cl)cc1	-0.85	x
CCCCC12CN3CC(C)(CN(C1)C3c1ccc(OC(C)C)cc1)C2=O (stereo unspecified)	-1.4	-0.11
CN1c2ccccc2-c2nc3ccccc3n2C1c1ccncc1 (stereo unspecified)	-0.78	x
COc1ccc2c(c1)c(CC(=O)O)c(C)n2C(=O)c1ccc(Cl)cc1	-0.39	-0.37&-0.56
COc1cc(C)nc(NS(=O)(=O)c2ccc(C)cc2)n1	-1.8&-0.6	-0.48
Cc1cc(C)cc(N(Cc2cc(=O)n3ccccc3n2)C2=NC3CS(=O)(=O)CC3S2)c1 (stereo unspecified)	-2.1	x
CN(Cc1ccccc1)S(=O)(=O)c1cccs1	-2.3	-0.33
O=S(=O)(c1ccc(F)c(Cl)c1)N1CCN(c2cc(-c3ccccc3)ncn2)CC1	x	0.77
Cc1ccc2nc(Nc3ccccc3F)c3nncn3c2c1	-0.95	0.47
CC1CCN(C(=O)CSc2nnc(-c3cccs3)o2)CC1	0.58	0.87
COc1ccc2nc(NC(=O)c3cc(CN4CCCC4)on3)sc2c1	x	0.1
Cc1ccccc1CNc1nc(N2CCOCC2)nc2c1cnn2C	x	1.2
CC1(C)CC(=O)C2=C(C1)Nc1nc(SCC(=O)c3ccccc3)nn1C2c1ccccc1 (stereo unspecified)	-1	-0.93
OCCNc1ccc2ccccc2n1	-0.87	1.4
CC1(C(=O)NC2CCCC2)CCC(=O)N1c1cccc(F)c1 (stereo unspecified)	-1.1	0.07
Cc1sc(-n2cccc2)c(C(C)NC(=O)Nc2ccccc2Cl)c1C (stereo unspecified)	1.9	-0.17
Cc1nn(CCCC(=O)O)c(=O)c2nn(-c3ccccc3)c(C)c12	-0.19	-0.5
COC(=O)c1ccc(OC(=O)c2cccs2)cc1	0.53	x
Cc1ccc2nc(C3=C(O)CN(CC4CCCO4)C3=N)[nH]c2c1 (stereo unspecified)	-4.6	1.8
CCOC(=O)c1c(NC(=O)c2ccco2)sc2c1CCC(C(C)(C)C)C2 (stereo unspecified)	1.8	0.62
CC(C)CCNC(=O)C1CCCN(S(=O)(=O)c2ccc3c(c2)oc(=O)n3C)C1 (stereo unspecified)	-1.4	-0.07
O=C(O)CSc1nnc(-c2ccc(Br)cc2)n1-c1ccccc1	0.17	-1.1
Cc1cc(-c2ccc(S(=O)(=O)NCc3ccc(N(C)C)cc3)s2)n[nH]1	x	-7.4
CCCc1nc(SCC(=O)NCc2ccco2)c2c(=O)n(C)c(=O)n(C)c2n1	x	-0.68
Cc1[nH]c(=O)[nH]c(=O)c1S(=O)(=O)Nc1ccc(Br)cc1F	x	0.52
O=C(NC1CCN(CC(=O)N(c2ccccc2)C2CCCCC2)CC1)c1ccccc1	-2.5	x
O=C(COC(=O)CC1(CC2=NS(=O)(=O)c3ccccc3N2)CCCC1)Nc1ccccc1	x	-0.18
CNC(=O)C1CCCN(c2nn3c(=O)cc(C)nc3s2)C1 (stereo unspecified)	-0.1	0.83
O=C(C1c2ccccc2C(=O)N(C2CCCC2)C1c1cccs1)N1CCC(N2CCCCC2)CC1 (stereo unspecified)	x	2
O=C(NC1CCCC1)C1CCN(S(=O)(=O)c2ccc(-n3cnnn3)cc2)CC1	-0.87	1.6
COc1ccccc1NS(=O)(=O)c1cc2c3c(c1)CCN3C(=O)CC2	x	1.6
O=C(Nc1ccc(F)cc1F)N1CCN(c2ccccn2)CC1	1.3	0.42
Cc1ccc(C(O)c2nc3ccccc3n2C)cc1 (stereo unspecified)	0.27	1.8
O=C(Cn1c(=O)oc2ccccc21)N(Cc1ccco1)CC1CCCO1 (stereo unspecified)	x	0.08
O=C(Nc1ccc2c(c1)OCO2)C1CCCN(C(=O)c2cnn(-c3ccccc3)c2-n2cccc2)C1 (stereo unspecified)	-0.24	-0.28
CCOC(=O)c1c(C)[nH]c(C)c1S(=O)(=O)NCC(=O)N1CCN(C2CCCC2)CC1	x	0.34
O=C(C1CCCN1S(=O)(=O)c1cccc2cccnc12)N1CCc2ccccc21 (stereo unspecified)	-1.4	x
COc1ccc(-c2noc(N3CC=C(c4ccccc4)CC3)n2)cc1	-1.5	0.2
CCN(CC)CCOC(=O)c1c(C)oc2ccc(O)c(Cl)c12	-0.86	-1.1
O=C(c1noc2ncnc(N3CCCC3)c12)N1CCN(c2ccccn2)CC1	x	-0.15
COCCCNC(=O)C1=C(C)C(=O)OC12CCN(C(C)=O)CC2	x	1.4
O=c1c2ccccc2n2c(-c3ccccc3)nnc2n1CCc1ccccc1	-1.6	0.49
CC(C)CC(NS(=O)(=O)c1ccc2c(c1)oc(=O)n2C)C(=O)Nc1ccc(F)c(F)c1 (stereo unspecified)	-0.94	1
CCc1nc2nc(C)c(NS(=O)(=O)c3ccc(CC(C)C)cc3)c(=O)n2[nH]1	-0.11	-0.95
O=C(NCC(c1ccco1)N1CCOCC1)c1cc(=O)c2ccccc2o1 (stereo unspecified)	-0.84	0.34
Cc1ccc(-c2onc(C)c2C)cc1S(=O)(=O)N1CCCc2ccccc21	x	1.3
COc1ccc(-c2nnc(SCC(=O)Oc3ccc(Cl)cc3)o2)cc1OC	-3.8	-0.99
Cn1nc(C(=O)N2CCN(c3ccccc3F)CC2)c2c1-c1ccccc1SC2	-0.58	-6.1
Cn1c(=O)c2c(-c3ccccc3Cl)n(-c3cccc(N)c3)cc2n(C)c1=O	1.2	1.2

(listing goes on)
structure	CDC25B-CDK2 inh	HIV TAR-Tat
Fc1ccc(C2=Nc3ccc(Br)cc3NC(c3ccncc3)=N2)cc1	-2.4	0.51
CC1(C(=O)NC2CCCC2)Cn2c(ccc2-c2ccco2)C(=O)N1CCCN1CCCCC1 (stereo unspecified)	x	-0.61
Cn1cccc1Cc1nnc(SCC(N)=O)n1-c1ccccc1	0.05	-0.26
CC12CCC(C(=O)N(Cc3ccccc3)Cc3ccccc3)(C(Br)C1=O)C2(C)C (stereo unspecified)	-1.2	1.8
CCSc1nnc2c(n1)OC(c1ccc(N(C)C)cc1)Nc1ccccc1-2 (stereo unspecified)	-1.1	-0.78
Cc1c(CS(=O)(=O)c2ccccc2)c(=O)n(-c2ccccc2)n1C	0.27	-0.33
Cc1[nH]nc(-n2cnnc2)c1NC(=O)COc1ccc(Cl)cc1	-1.3	3
CC1=C(c2cccc(Br)c2)S(=O)(=O)N=C1N1CCN(C)CC1	-1.8	1.1
Cc1cccc(N2C(=O)NC3CC2(C)Oc2ccc(Br)cc23)c1C (stereo unspecified)	-3	x
Cc1cc2c3c([nH]c2cc1S(=O)(=O)Nc1cccc(F)c1)CC(C)(C)CC3=O	x	0.97
CCN1CCN(C(c2cccs2)C(C)NC(=O)C(=O)N2CCCCC2)CC1 (stereo unspecified)	-1.2	-1.3
CCc1cc2c3c([nH]c2cc1S(=O)(=O)N1CCN(CC)CC1)CCCC3=O	x	1.4

Profiles, looked up by structure. Order of screens: CDC25B-CDK2 inh, HIV TAR-Tat
`CCc1cc2c3c([nH]c2cc1S(=O)(=O)N1CCN(CC)CC1)CCCC3=O` in the list: x, 1.4
`Cc1cccc(N2C(=O)NC3CC2(C)Oc2ccc(Br)cc23)c1C` (stereo unspecified) in the list: -3, x
`CCN1CCN(C(c2cccs2)C(C)NC(=O)C(=O)N2CCCCC2)CC1` (stereo unspecified) in the list: -1.2, -1.3
`Cc1cc2c3c([nH]c2cc1S(=O)(=O)Nc1cccc(F)c1)CC(C)(C)CC3=O` in the list: x, 0.97
`Cn1cccc1Cc1nnc(SCC(N)=O)n1-c1ccccc1` in the list: 0.05, -0.26

Next part:
structure	CDC25B-CDK2 inh	HIV TAR-Tat
O=C(NCC(c1ccco1)S(=O)(=O)c1ccc(Cl)cc1)C1CC1 (stereo unspecified)	x	2.3
Cc1cc(C(=O)NN)nn1-c1c(Cl)cc(Cl)cc1Cl	0.88	x
Cc1cccc(CNc2nc(N3CCN(C)CC3)nc3c2cnn3C)c1	x	1.3
O=c1[nH]cccc1-c1nc(-c2ccccc2Cl)no1	-2.2	0.56
CN(C)CC/C=C1\c2ccccc2COc2ccccc21	-0.85	x
CN(C)Cc1c(O)ccc2c(=O)c(-c3cccc4ccccc34)c(C(F)(F)F)oc12	-0.12	2.3
CCN(CC)Cc1cc(C(C)C)c(O)c(C(C)C)c1	-1.1	-2.8
O=C(NC1CC1)C1C2C=CC3(CN(Cc4cccs4)C(=O)C13)O2 (stereo unspecified)	-0.24	x
CCOC(=O)[C@H]1NC(=O)C[C@H]1c1ccccc1	-3.5	0.3
CCOC(=O)C1=C(C)NC2=C(C(=O)CC(C)(C)C2)C1c1ccc(F)cc1 (stereo unspecified)	-0.86	0.89
CCc1nn2c(=O)cc(COc3ccc(OC)cc3)nc2s1	-1.3	-0.59
COc1ccccc1NC(=O)c1oc2ccccc2c1NC(=O)C1CC1	-0.54	1.2

Looked up by compound from above, three records:
structure	CDC25B-CDK2 inh	HIV TAR-Tat
CCc1nn2c(=O)cc(COc3ccc(OC)cc3)nc2s1	-1.3	-0.59
Cc1cc(C(=O)NN)nn1-c1c(Cl)cc(Cl)cc1Cl	0.88	x
CCOC(=O)C1=C(C)NC2=C(C(=O)CC(C)(C)C2)C1c1ccc(F)cc1 (stereo unspecified)	-0.86	0.89

Carrying on:
structure	CDC25B-CDK2 inh	HIV TAR-Tat
COc1ccc(Oc2c(C(F)(F)F)oc3c(CN4CCCCC4)c(O)ccc3c2=O)cc1	-2.1	0.83
COC(=O)c1c(NC(=O)c2ccccc2Br)sc2c1CCC2	-2.3	-0.06
CCOC(=O)c1nnn(-c2nonc2N)c1-c1cccc2ccccc12	-0.82	2.9
COC(=O)c1nn2c(C(F)(F)F)cc(-c3ccccc3)nc2c1Cl	x	2.2
O=[N+]([O-])c1ccc(Oc2nc3cc(Cl)ccc3s2)c(C2SCCS2)c1	-3	x
Cc1cc(C)n2c(SCc3ccc(C(=O)c4ccccc4)cc3)nnc2n1	8.3*	1.5
CCc1cc2c(cc3c(=O)n(CCCC(=O)NC4CCCCC4)nc(CC)n32)s1	-2.2	1.3
N#CC1=CNc2ccccc2N=C1N	-2.1	x
O=C(O)CCCc1nc(-c2cccc([N+](=O)[O-])c2)no1	-1.2	x
CCOC(=O)Cn1c(C)cc(=O)c2cccc(OC)c21	-1.9	-0.41
O=C(Cn1ncc2c(=O)oc3ccccc3c21)Nc1cnc2ccccc2c1	-1.1	x
Cc1ccc(NC(=O)CSC2=C(C#N)C(c3ccc4c(c3)OCO4)C3=C(CCCC3=O)N2)c(C)c1 (stereo unspecified)	-3.2	1
Cc1nc2sc(C(c3ccccc3)N3CCN(c4cccc(Cl)c4)CC3)c(O)n2n1 (stereo unspecified)	-1.1	x
COc1cc(C2CC(=O)NC(SCc3ccccc3)=C2C#N)cc(Br)c1O (stereo unspecified)	-2.5	-0.25
O=C(O)CNc1ncnc2ccccc12	-1.6	-0.81
O=C(CSCc1cc(=O)n2nc(C3CCCCC3)sc2n1)Nc1ccccc1	x	0.46
CCCCOc1ccc(N2C(=O)C3C4c5ccccc5C(CO)(c5ccccc54)C3C2=O)cc1 (stereo unspecified)	0.17	2.4
CN(C)c1ccc(NC(=O)c2ncn[nH]2)cc1	-0.9	1.8
CCOCCn1c(=O)c2c(nc3n2CCCCN3c2ccc(OCC)cc2)n(C)c1=O	0.03	0.46
O=C(Nc1ccc(-c2nc3ccccc3s2)cc1)c1ccccc1	-2.7	x
NC(=O)CSc1nc2c(oc3ccccc32)c(=O)n1-c1ccccc1	-3.3	1
CC(C)N(Cc1ccccc1)S(=O)(=O)c1ccc2c(c1)C(C)(C)C(=O)N2C	x	2.3
Cc1ccc(N2C(=O)c3cccnc3C2Nc2ccc3c(c2)OCO3)cc1 (stereo unspecified)	x	1.7
COc1cc(Cl)c(C)cc1NC(=O)C1=Cc2sc(C)c(C)c2CS1	x	-4.2
